Compound activity: PubChem, several laboratories
UCH37 DUB inh – inhibitors of human deubiquitinating enzyme UCH37. Q9Y5K5. purified proteasome/UCH37, Ub-AMC cleavage fluorescence. inhibition, % (no concentration beside the values). actives 0.33% (n = 330,000);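 active means mean of two replicates above 20%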;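 further: 0% = compound-free wells with enzyme and 100% = wells lacking proteasome; stock transfer was 100 nL into about 20 µL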
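assay system = human UCH37 enzyme supplied as purified proteasome complex | amount = proteasome at 0.15 nM in the dispensed enzyme solution | schedule = 30 min compound-proteasome preincubation then 25 min substrate reaction, room temperature | measured by = fluorescence, ex 355 nm, em 460 nm | benchmarks = no-proteasome wells (full inhibition) and compound-free wells (no inhibition)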
HNF4A DNA FP – change in binding of human HNF4 alpha to DNA; activity change, % at 10 µM; actives 0.3% (n = 360,000); HNF4a-FITC DNA binding, fluorescence polarization, 1 h; in the data active means activity change above about 30%, passing the limit was not always enough;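 further: controls were the assay level and a saturating level of protein; the project sought stronger binding though the title names inhibitors; some compounds called inactive have numbers as strong as hits; positive values seem to mean higher polarization but the record does not say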
Target sequence (P41235 whole entry, looked up): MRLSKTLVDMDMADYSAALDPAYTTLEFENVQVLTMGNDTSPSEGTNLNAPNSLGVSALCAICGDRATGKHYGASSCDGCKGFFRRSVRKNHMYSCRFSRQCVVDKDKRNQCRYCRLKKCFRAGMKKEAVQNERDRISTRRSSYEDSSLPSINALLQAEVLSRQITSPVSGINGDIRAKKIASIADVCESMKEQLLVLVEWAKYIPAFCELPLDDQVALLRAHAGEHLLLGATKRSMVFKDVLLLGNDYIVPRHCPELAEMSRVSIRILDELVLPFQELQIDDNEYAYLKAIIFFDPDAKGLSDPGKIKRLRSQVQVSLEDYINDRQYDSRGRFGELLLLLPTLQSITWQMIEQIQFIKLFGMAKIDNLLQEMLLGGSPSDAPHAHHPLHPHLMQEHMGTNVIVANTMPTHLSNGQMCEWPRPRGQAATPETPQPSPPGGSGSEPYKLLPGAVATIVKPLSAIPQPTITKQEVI
A1 inh – inhibitors of the anti-apoptotic protein A1, read as caspase activation; AID 2462; caspase activation, % (concentration not given with the values); actives 0.066% (n = 330,000); MEF A1-2A-BIM cells, Caspase-Glo 3/7 luminescence, 3 h; percent of clofoctol response, vehicle zero;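 active means over half of replicate activation scores above 10%, or exactly half above 10 with the replicate mean above 10; inconclusive means replicate mean below 10 yet half the replicates above 10; inactive means over half of replicates below 10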;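 further: wells of about 30 µL received 50 nL stock; many hits fall short of the cut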
Vif TR-FRET – inhibitors of Vif binding to APOBEC3G peptide, primary screen, biochemical, TR-FRET, GST-Vif 1-94, biotin-A3G peptide, dose response retest (AID 1117319) | TR-FRET GST-Vif / biotin-A3G peptide binding; higher % means a stronger effect; test concentration not given here; strong numbers were not always called active | inhibition, %, or IC50 in µM where a hit was titrated | actives 0.57% (n = 260,000);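 active means above the screen mean plus three standard deviations and confirmed in dose response; inconclusive means results disagree or hit not tested in dose response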;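 further: Vif residues 1-94 fused to GST binding biotinylated APOBEC3G peptide 110-148; 0% = full assay without inhibitor and 100% = GST in place of GST-Vif; retest series ran down from 100 µM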
LANA-H2B inh – blocks KSHV LANA binding to histone H2A/H2B; Q9QR71; cell-free LANA-H2A/H2B peptide, fluorescence polarization; inhibition, % (no concentration beside the values); actives 0.6% (n = 320,000); in the data active means inhibition mostly above about 10%, no sharp cut-off; inactive means mostly below about 6.7%;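 further: stock transfer was 7.5 nL into about 10 µL; 0% = median of vehicle wells and 100% = median of positive control wells; one replicate is shown; the record names a cut of 25% in any replicate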
Beta2AR agonist – agonists of human beta-2 adrenergic receptor inducing internalization | P07550 | Am2.2-beta2AR cells, FAP receptor internalization, flow cytometry; reference of the scale not given here | response, % (concentration not given with the values) | actives 0.43% (n = 340,000) | AID 504454;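 active means response above a set limit, near 3 SD of response in nonfluorescent compounds, cut at about 42% in these data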;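 further: stock transfer was 100 nL into about 11 µL; a reference agonist was the positive control; negative values mostly stem from fluorescent compounds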
Target sequence (P07550 whole entry, looked up): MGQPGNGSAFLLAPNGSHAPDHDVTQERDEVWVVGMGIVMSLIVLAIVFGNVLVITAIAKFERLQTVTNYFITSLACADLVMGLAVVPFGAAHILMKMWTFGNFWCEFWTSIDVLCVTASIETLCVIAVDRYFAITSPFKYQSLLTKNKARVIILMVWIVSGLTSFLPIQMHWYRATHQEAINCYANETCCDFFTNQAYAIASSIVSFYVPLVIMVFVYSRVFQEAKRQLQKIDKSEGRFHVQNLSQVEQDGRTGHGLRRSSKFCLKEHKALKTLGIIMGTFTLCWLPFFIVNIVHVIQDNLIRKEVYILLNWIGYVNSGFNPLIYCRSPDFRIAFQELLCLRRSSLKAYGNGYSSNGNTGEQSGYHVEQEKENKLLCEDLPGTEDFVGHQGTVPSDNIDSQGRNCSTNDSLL
E coli growth – blocks Escherichia coli growth; OD600 absorbance (test concentration not listed); OD600, 23 h; active compounds read low; actives 0.21% (n = 330,000);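 active means OD600 absorbance below the run mean of sample wells minus 3.6 SD, in any replicate, cut at about 0.56 in these data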;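 further: stock transfer was 300 nL into about 60 µL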
Starred values were filed as active, the others as inactive; ? = inconclusive; . = not tested or not shown. Rows were taken by chance. About 2.1% of those tested had a hit in this group.

SMILES	UCH37 DUB inh	HNF4A DNA FP	A1 inh	Vif TR-FRET	LANA-H2B inh	Beta2AR agonist	E coli growth
COc1ccc(NC(=O)/C(C#N)=C/c2cc(C)n(-c3ccc(N4CCOCC4)c([N+](=O)[O-])c3)c2C)cc1	11	-5.5	-1.1	.	.	9	0.72
c1ccc2sc(SCc3ccc(-c4nnco4)cc3)nc2c1	-0.4	2.9	-7.9	15%	0.0	-21	0.69
COc1cc2c(cc1OC)CN(C(=O)CN1C(=O)c3ccc([N+](=O)[O-])cc3C1=O)CC2	2.5	-0.7	-0.3	6%	-0.9	4	0.69
CC(C)C[C@@H](CN)NC(=O)c1nc[nH]c1C(=O)N[C@@H](C)C(=O)CNC[C@H](CC(C)C)NC(=O)c1nc[nH]c1C(=O)N[C@@H](Cc1ccccc1)C(=O)O	.	-0.6	.	1%	.	3	.
Cc1ccc(S(=O)(=O)N2CCN(C(=O)c3sccc3-c3ccccc3)CC2)cc1	3.3	3.4	-1.9	.	-2.7	7	0.68
Cc1ccc(S(=O)(=O)NCC(=O)NCCc2c[nH]c3ccccc23)cc1C	-2.6	87	0.3	.	0.7	0	0.72
COc1cc(C(C)=O)ccc1OCC(=O)Nc1cc(C)on1	-1.7	2.1	-0.5	.	1.4	-1	0.7
O=C(N/N=C/c1ccco1)c1ccccn1	.	-3.0	-0.8	13%	5.3	-1	.
O=C(CN1CCCCCC1)N/N=C/c1cccc(Cl)c1	.	-2.6	0.8	7%	7.2	2	.
Nc1ccn(C2CCCCO2)c(=O)n1 (stereo unspecified)	-3.0	0.6	.	-8%	.	2	0.68
CCN1CCN(C(=S)NCC2CCCO2)CC1 (stereo unspecified)	-0.6	0.1	0.6	0%	-4.0	-14	0.64
Cc1c(-c2nc(-c3cccnc3)no2)cccc1[N+](=O)[O-]	3.5	2.3	-1.3	8%	0.9	-9	0.7
Cc1ccc(-c2nn3c(C)nnc3c3ccccc23)cc1S(=O)(=O)NCCO	0.3	1.1	1.8	.	-4.7	3	0.68
CCCN(CCC)CCCNC(=O)C1c2cc(OC)c(OC)cc2C(=O)N(C)C1c1cccnc1 (stereo unspecified)	-1.5	2.4	-0.4	1%	-0.3	6	0.73
COc1ccc(Cl)cc1NC(=O)CN(C)C(=O)C1COc2ccccc2O1 (stereo unspecified)	3.9	1.7	0.8	.	-8.7	7	0.71

3 structures from above, ordered by length of the SMILES, rising.
SMILES	UCH37 DUB inh	HNF4A DNA FP	A1 inh	Vif TR-FRET	LANA-H2B inh	Beta2AR agonist	E coli growth
CCN1CCN(C(=S)NCC2CCCO2)CC1 (stereo unspecified)	-0.6	0.1	0.6	0%	-4.0	-14	0.64
Cc1ccc(S(=O)(=O)NCC(=O)NCCc2c[nH]c3ccccc23)cc1C	-2.6	87	0.3	.	0.7	0	0.72
CC(C)C[C@@H](CN)NC(=O)c1nc[nH]c1C(=O)N[C@@H](C)C(=O)CNC[C@H](CC(C)C)NC(=O)c1nc[nH]c1C(=O)N[C@@H](Cc1ccccc1)C(=O)O	.	-0.6	.	1%	.	3	.

The list goes on:
SMILES	UCH37 DUB inh	HNF4A DNA FP	A1 inh	Vif TR-FRET	LANA-H2B inh	Beta2AR agonist	E coli growth
CCN(Cc1ccccc1)C(=O)c1cccc(S(=O)(=O)N2CCN(c3ccc(F)cc3)CC2)c1	2.1	-3.4	0.6	-4%	-0.9	-6	0.68
Cn1c(=O)c2c(ncn2CCC(=O)N/N=C/c2ccccc2)n(C)c1=O	.	-0.7	-0.5	16%	1.3	-6	.
Cc1cccc(NC(=O)COc2coc(CN3CCN(Cc4ccccc4)CC3)cc2=O)c1	2.6	-2.9	0.2	.	4.0	-6	0.68
O=C(Cn1nc2n(c1=O)-c1ccccc1SC2)N/N=C/c1cccs1	.	2.8	1.9	-10%	-1.2	3	.
O=C(COC(=O)c1cc(Cl)ccc1O)NCCC1=CCCCC1	.	-2.5	-0.6	.	4.7	2	.
O=C1CCN(S(=O)(=O)c2ccccc2)CCN1CCOCc1ccccc1	0.1	-6.1	0.4	.	2.2	1	0.64
CCCCC[n+]1cccc2c3ccccc3ccc21	-264	-3.5	0.2	3%	-0.2	-1	.
CC(C)n1c(N)c(C#N)c2ccc([N+](=O)[O-])cc2c1=O	1.2	-0.5	0.6	-2%	1.2	20	0.72
O=C(Nc1ccc(S(=O)(=O)N2CCOCC2)cc1)c1cc(-c2cc(Cl)ccc2O)n[nH]1	5.2	0.8	2.0	20%	-4.2	38	0.67
Cn1c(=O)c2c(nc(N3CCc4ccccc4C3)n2C)n(C)c1=O	-1.1	-0.9	-0.8	-3%	3.7	-2	0.63
CCCNC(=O)c1onc(CSc2ccc(F)c(F)c2)c1C(=O)NCCC	2.2	.	2.1	.	2.7	.	0.69
O=C(CC(=O)c1cccs1)c1ccncc1	11	0.7	.	-2%	.	-3	0.66
COc1ccc(CCNc2oc(-c3ccccc3OC)nc2C#N)cc1OC	-63	-2.5	0.1	1%	6.8	0	0.68
CCCCCOC(=O)Cn1c(=O)oc2ccc(C)cc21	-0.6	5.4	?	.	0.0	-2	0.66
CCCCC(=O)Nc1ncc(Br)s1	0.7	0.6	0.5	4%	7.8	1	0.64
CCC(=O)Nc1c(C)nn(-c2ccc(C)c(C)c2)c1C	-2.0	1.1	0.1	-3%	3.1	1	0.69
COC(=O)CC1C(=O)NCCN1Cc1cn(-c2ccc(C)cc2)nc1-c1cccc(C)c1 (stereo unspecified)	3.5	-4.1	0.1	1%	5.0	-13	0.68
COc1cc(/C=C2/C(=N)N3OC(C)=CC3=NC2=O)ccc1OC(=O)c1ccco1	1.2	3.1	1.2	-6%	2.4	20	0.66
Cc1cc(C)nc(-n2nc(C)cc2NC(=O)CN2CCc3ccccc3C2)n1	5.6	0.5	0.1	0%	-0.2	-5	0.7
COc1ccc(CNc2ncc(-c3cccc([N+](=O)[O-])c3)n2C)c(OC)c1OC	5.8	-0.3	-0.3	-8%	2.0	-1	0.68
C[N+]1(CC(=O)Nc2ccccc2Cl)CCN(C(=O)c2cccs2)CC1	2.0	-0.7	0.7	2%	-1.0	-7	0.71
C=CCn1c(C)nnc1SCC(=O)N1CCN(S(=O)(=O)c2ccccc2)CC1	0.1	-1.2	-0.2	.	-5.2	4	0.71
Cn1ncc(Br)c1C(=O)NC(=S)N1CCN(c2ccccn2)CC1	4.8	-0.8	2.0	1%	-0.8	9	0.68
O=C1OC[C@@H]2CCCN2C(=O)[C@H](CC(=O)N(CCO)Cc2ccccc2)C/C=C\C[C@H]1Cc1ccc(F)cc1	2.4	3.9	-0.5	.	-1.1	-3	.
CN(C(=O)CSc1nncc2ccccc12)C1CCCCC1	3.9	1.3	0.8	-1%	3.3	0	0.71
Cn1nnnc1SCc1nnc(-c2ccc(Cl)cc2)o1	5.2	2.0	0.0	-6%	5.0	-2	0.74
NNC(=O)c1cc(Br)cs1	3.5	1.9	1.2	-1%	-5.9	-8	0.69
Nc1c(C(=O)Nc2ccc3c(c2)OCCO3)nnn1CCc1ccccc1	0.3	-1.4	-0.7	-3%	0.8	-2	0.67
CCc1ccc(N=C2NC(=O)/C(=C/c3ccc(OCC(=O)O)cc3)S2)cc1	15	0.7	1.0	2%	-6.9	0	0.72
C[C@H](NC(=O)c1nc[nH]c1C(=O)NCc1ccc(CNC(=O)OC(C)(C)C)cc1)c1ccccc1	-1.8	4.4	-0.9	.	3.3	0	.
CCC(=O)N1CCN(c2ccc(OC)cc2[N+](=O)[O-])CC1	1.3	0.6	-0.4	-2%	2.9	11	0.69
COc1ccc(C2C3=C(CCCC3=O)Nc3nc(C(F)(F)F)nn32)c(OC)c1OC (stereo unspecified)	4.3	-1.1	-1.2	1%	-1.2	-21	0.69
O=C(c1cccnc1NCc1ccc(F)cc1)N1CCOCC1	-0.3	0.8	-0.1	71%	-0.4	7	0.73
CN(Cc1ccccc1)c1nc2c(c(=O)n(C)c(=O)n2C)n1CCCc1ccccc1	0.7	2.1	-0.4	-4%	2.2	-1	0.69
C=CCC[C@H](Cc1ccc(F)cc1)C(=O)OC[C@@H](NC(=O)[C@@H](CC=C)CC(=O)N(CCO)Cc1ccccc1)C(C)(C)C	3.0	-0.7	-1.0	.	-4.1	11	.
COCCn1c(-c2ccc(OC)cc2)cnc1SCC(=O)Nc1ccc(OC)cc1OC	4.4	2.0	-0.1	.	-8.1	7	0.68
O=C(NCCCO)NC(=S)c1cccc2ccccc12	1.0	-1.8	-0.5	-7%	0.3	-3	0.65
CSc1nc2cc(C)nn2c(-c2ccccc2Cl)c1C#N	-13	-1.1	0.2	-1%	-2.9	-2	0.69
O=C(Cn1nnc2ccccc2c1=O)NCc1ccco1	2.4	-2.0	-0.1	6%	-2.5	-5	0.68
Cc1ccc(OCC(=O)Nc2cccc(S(=O)(=O)NC3=NCCCCC3)c2)cc1C	-0.1	0.6	0.9	.	-3.2	1	0.69
O=C(CCc1nc2ccccc2n1-c1ccccc1)NCCO	1.8	-1.7	1.4	15%	-2.7	-7	0.67
O=C(Nc1cc(C(F)(F)F)ccc1N1CCOCC1)C1CCCO1 (stereo unspecified)	-1.8	2.1	1.0	.	-0.5	0	0.68
Cc1cc(-c2nnnn2-c2cc(Cl)cc(Cl)c2)no1	1.2	-1.3	0.5	-9%	0.5	-2	0.65
COc1cccc(/C=N/NC(=O)C(c2ccncc2)N2CCOCC2)c1 (stereo unspecified)	.	-0.8	0.4	2%	-3.0	2	.
COc1cc(C(=O)n2cnc3ccccc32)c([N+](=O)[O-])cc1OC	7.3	-1.6	0.9	.	6.1	3	0.61
O=C(N/C(=C/c1ccccc1Cl)C(=O)N1CCCC1)c1ccccc1	-0.6	-2.1	-0.1	-3%	-0.4	5	0.67
CCOC(=O)CNC(c1ccccc1)c1cc(Br)ccc1NC(=O)CCN1CCOCC1 (stereo unspecified)	4.9	1.4	-1.0	.	-3.9	1	0.68
COc1cc(/C=C/C(=O)NC(=O)c2ccccc2O)ccc1O	11	1.0	-6.2	-5%	-7.1	12	0.68
COc1cccc(C(=O)Oc2ccc(N3C(=O)CCC3=O)c(C)c2)c1	5.9	-2.9	1.1	-9%	9.2	12	0.67
CCOC(=O)C1CCCN(Cc2c(F)cccc2Cl)C1 (stereo unspecified)	-1.0	-0.7	-0.5	5%	-3.9	4	0.7
Cc1sc2nc(-c3cccnc3)[nH]c(=O)c2c1-c1ccccc1	-92	-1.2	2.3	1%	-1.7	11	0.71
CCOC(=O)CCC(=O)Nc1ncnc2c1C(c1ccccc1)c1c(ccc3ccccc13)O2 (stereo unspecified)	0.9	-0.8	-0.6	.	0.1	9	0.67
CCCCC(=O)N/N=C/c1cc([N+](=O)[O-])ccc1N1CCOCC1	.	1.2	0.1	.	-5.7	-7	.
Cc1ccccc1NS(=O)(=O)c1nnc(NC(=O)c2ccccc2F)s1	3.7	-1.0	-0.6	.	-4.9	-11	0.7
COC(=O)c1cc(C)sc1NC(=O)CN1CCN(C(=O)C2CCCO2)CC1 (stereo unspecified)	0.1	2.1	0.3	9%	-6.7	2	0.72
C=CCN1C(=O)/C(=C/c2ccc(O)c(OC)c2)S/C1=N/c1nccs1	.	95*	-0.4	.	-0.5	-191	.
O=c1nc2n(c3cccc(Cl)c13)CCCCC2	6.4	0.0	1.0	-14%	2.3	-4	0.68
COc1ccc(-c2csc(NCc3ccco3)n2)cc1	-3.6	0.2	-2.1	2%	0.0	-12	0.74
CCN(CC)CCN(C(=O)c1ccc(C(=O)c2ccccc2)cc1)c1nc2cc3c(cc2s1)OCO3	4.9	7.9	-1.5	-4%	2.6	-3	0.74
CC(NC(=O)c1cc2ccccc2oc1=O)c1ccc(O)cc1 (stereo unspecified)	2.7	1.4	-0.4	6%	1.6	-8	0.59
Cn1c(=O)c([N+](=O)[O-])c(NCC2CCCO2)c2ccccc21 (stereo unspecified)	8.5	-4.7	1.1	-1%	0.7	-5	0.63
